Env fusion inh: blocks HIV Env-driven cell-cell fusion | inhibition, % at 12.3 µM | 360,000 compounds, 1.1% hits | HeLa-JRFL Env/CEM21 cell fusion, luciferase | AID 651610;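 active = mean replicate inhibition score of at least 50 and every replicate individually at or above 50; inconclusive = only one of the two criteria met; inactive = mean below 50 and not all replicates reaching 50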;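 note: 0% = plate neutral controls and 100% = maraviroc near 300 nM; one replicate is shown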
UUG fidelity: yeast start codon fidelity modulation; S. cerevisiae UUG-firefly luciferase reporter, luminescence/redox ratio; activity score, % at 18.7 µM; 350,000 compounds, 0.13% hits;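 active = replicate mean at a twofold rise or more, about +100% in these data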;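 note: firefly luciferase made from a UUG start codon reports start codon fidelity; reporter light over untreated wells divided by growth signal over untreated wells; some hits fall short of that in this replicate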
PABP FP inh: blocks human PABP binding to poly(A) RNA. P11940. fluorescence polarization. inhibition, % at 35 µM. 290,000 compounds, 1% hits. AID 2014;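 active = 50% or more with normal probe brightness, or confirmed in later tests; inconclusive = above 50% with abnormal brightness, or retests that disagree; inactive = below 50% or failed in later tests; about a fifth of its hits are not listed in these tables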;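 note: calls also rest on retests at 20 µM and on dose response follow-up; controls were probe without protein and protein plus probe with vehicle; some compounds called inactive have numbers as strong as hits; many hits fall short of the cut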
Target sequence (P11940 whole entry, looked up): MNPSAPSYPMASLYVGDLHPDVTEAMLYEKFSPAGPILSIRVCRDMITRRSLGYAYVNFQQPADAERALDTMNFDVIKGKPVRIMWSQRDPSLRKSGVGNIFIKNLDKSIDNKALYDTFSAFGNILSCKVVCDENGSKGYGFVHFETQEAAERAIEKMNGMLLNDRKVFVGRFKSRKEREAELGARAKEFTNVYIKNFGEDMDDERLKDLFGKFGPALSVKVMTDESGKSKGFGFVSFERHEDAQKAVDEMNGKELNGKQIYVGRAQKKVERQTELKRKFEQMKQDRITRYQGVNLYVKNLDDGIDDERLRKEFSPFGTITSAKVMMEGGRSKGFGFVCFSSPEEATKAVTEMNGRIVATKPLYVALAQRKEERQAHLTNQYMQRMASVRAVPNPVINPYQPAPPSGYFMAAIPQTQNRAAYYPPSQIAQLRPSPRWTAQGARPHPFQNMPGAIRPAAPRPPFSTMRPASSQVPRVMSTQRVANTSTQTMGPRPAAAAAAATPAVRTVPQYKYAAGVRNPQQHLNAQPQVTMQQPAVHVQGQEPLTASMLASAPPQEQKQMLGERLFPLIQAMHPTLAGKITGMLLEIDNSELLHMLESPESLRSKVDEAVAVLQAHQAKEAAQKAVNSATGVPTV
CSC inhib: cancer stem cell inhibition; cancer stem cell-like cells viability, luminescence; inhibition, % at 7.5 µM; AID 2717; 300,000 compounds, 1.1% hits;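 active = mean at 75% or more and at least half the replicates too; inconclusive = mean and replicates disagree; tested in HMLE shEcad cells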;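 note: 0% = median of negative and 100% = median of positive control wells; the first replicate is given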
Rce1 inh: blocks yeast Ras-converting enzyme. Q03530. yeast membranes, quenched prenylated peptide cleavage fluorescence. calls only. 290,000 compounds, 0.27% hits. AID 2563;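 active = fall in fluorescence gain of 50% or more versus controls, with final raw signal at or below 3038400; inconclusive = same 50% fall but final raw signal above 3038400; inactive = fall in fluorescence gain under 50%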;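 note: plate controls were neutral control wells for no effect and wells lacking membranes for full effect; tested at 10 µM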
Target sequence (Q03530 whole entry, looked up): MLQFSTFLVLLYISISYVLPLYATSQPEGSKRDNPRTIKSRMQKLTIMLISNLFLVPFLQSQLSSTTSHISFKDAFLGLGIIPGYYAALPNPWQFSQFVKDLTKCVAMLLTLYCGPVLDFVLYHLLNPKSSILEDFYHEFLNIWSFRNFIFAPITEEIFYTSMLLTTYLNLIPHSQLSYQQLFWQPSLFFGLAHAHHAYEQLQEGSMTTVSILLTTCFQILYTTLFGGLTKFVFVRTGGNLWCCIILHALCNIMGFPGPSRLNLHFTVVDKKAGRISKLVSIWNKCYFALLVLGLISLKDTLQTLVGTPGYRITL
eIF4H inh: inhibitors of RNA binding by human eIF4H; Q15056; eIF4H fluorescence polarization binding assay; inhibition, % at 35 µM; 290,000 compounds, 0.94% hits; AID 2012;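 active = 50% or more with normal probe brightness, or confirmed in later tests; inconclusive = above 50% with abnormal brightness, or retests that disagree; inactive = below 50% or failed in later tests; about a fifth of its hits are not listed in these tables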;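 note: calls also rest on retests at 20 µM and on dose response follow-up; 0% = protein and probe with vehicle and 100% = probe without protein; strong numbers were not always called active; many hits fall short of the cut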
MT1-MMP act inh: blocks activation of human MT1-MMP; 360,000 compounds, 0.061% hits; HT1080 RFP-PRO-GFP cells, GFP/RFP ratio fluorescence, overnight; percent of plate control window, DMSO zero; AID 651647; P50281; GFP/RFP ratio change, % at 20 µM;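 active = GFP/RFP ratio change of at least 30% with cell ATP level not reduced by more than half and red fluorescence within 50% of control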; note: strong numbers were not always called active
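Assay system: HT1080 RFP-PRO-GFP cells. Benchmarks: DMSO vehicle wells and RFP-L50D-GFP reporter cell wells. Times: overnight cell settling, then overnight compound exposure, 37 °C, 5% CO2. Compound: 20 µM single dose, 1% DMSO. Read-out basis: GFP/RFP fluorescence ratio.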
PABP FP inh retest: further read-out of PABP FP inh, marked with its call; inhibition, %; compound at 20 µM; confirmation repeats;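 mean of two retest wells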
MT1-MMP act inh RFP: further read-out of MT1-MMP act inh, marked with its call; RFP signal change, %; measured here: RFP expression control read;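 0 = vehicle wells; hits needed this value within 50% of zero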
An asterisk follows results filed as active; i = inactive; ? = inconclusive; . = no result given; + = active, no number. These rows are one share of the data; the hit share may differ from the screen's.

SMILES	Env fusion inh	UUG fidelity	PABP FP inh	CSC inhib	Rce1 inh	eIF4H inh	MT1-MMP act inh	MT1-MMP act inh RFP	others
CCOC(=O)c1ccc(NS(=O)(=O)c2ccc3c(c2)n(C)c(=O)n3C)cc1	35	0	-3	4	i	-4	2	-20
Cc1cc(C)c(S(=O)(=O)Nc2nnc(C(C)C)s2)c(C)c1	12	9	0	-14	i	4	1	2
Cc1c(Cl)cccc1N/C(SCC(=O)N1CCCCCC1)=C(/C#N)c1nc2ccccc2s1	-5	-9	-4	5	i	-1	-54	-39
CCn1cc(Br)c(C(=O)NCc2ccco2)n1	.	-20	5	3	i	-3	2	1
O=C(CCCCCNC(=O)c1ccccc1)N/N=C/c1ccccc1O	0	.	-8	7	i	1	3	0
CN1CCN(C(=O)CCc2ccc(S(=O)(=O)NC3CCCCC3)cc2)CC1	3	.	-6	9	i	0	5	8
CCN(CC)S(=O)(=O)c1ccc(NC(=O)c2cc(-c3cccs3)nc3ccccc23)cc1	1	-10	4	-7	i	2	2	0
CC(C)COc1cccc(C(=O)Nc2ccc(N3CCOCC3)cc2N2CCOCC2)c1	-15	.	.	15	i	.	-2	-4
Nc1nc(-c2ccc(Cl)cc2)nn1C(=O)c1cccs1	-10	4	51*	-13	i	?	-2	0	PABP FP inh retest=108*
Cc1ccc(C)c(NC(=O)CCC(=O)NNS(=O)(=O)c2ccc(Cl)cc2)c1	.	-6	.	-7	.	.	-1	2
CCCC1(c2ccccc2)NC(=O)N(CC(=O)Nc2ccc(N3CCOCC3)cc2)C1=O (centres undefined)	-42	-3	.	-15	.	.	-2	-1
COc1ccccc1C(=O)NC(CCSC)C(=O)NCC(c1ccccc1OC)N1CCCC1 (centres undefined)	-8	-9	.	-5	i	.	-1	2
COc1ccc(NC(=O)C2Cc3c(-c4ccc5c(c4)OCO5)ccnc3O2)cn1 (centres undefined)	-80	-3	.	.	.	.	9	-13
COc1ccc([C@H]2C[C@H](n3cc(-c4ccc(F)cc4)nn3)[C@@H](O)CN2CC2CCCCC2)cc1	3	-7	.	.	.	.	5	-1
N#CCCSCc1ccc(OCC(=O)O)cc1	-24	-9	-2	-12	i	1	-1	0
O=C(Nc1ccc2oc(=O)ccc2c1)c1ccco1	-61	-18	-5	-8	i	-8	-2	-4
N#Cc1ccc(NN=Nc2ccccc2C#N)cc1	9	-13	.	.	.	.	3	2
Cc1ccc(C(c2nnnn2C2CCCC2)N2c3ccccc3CC2C)cc1 (centres undefined)	6	.	-2	13	i	19	-1	0
O=C(CN1CCN(c2ccccc2F)CC1)NCc1ccc(Cl)cc1	1	-7	6	8	i	-3	2	-2
O=C(Nc1ccc(Cl)cc1)c1cccc(S(=O)(=O)Nc2ccccn2)c1	16	-7	-2	-25	i	-3	1	-9

Among those listed so far, two contain fluorine.
SMILES	Env fusion inh	UUG fidelity	PABP FP inh	CSC inhib	Rce1 inh	eIF4H inh	MT1-MMP act inh	MT1-MMP act inh RFP	others
COc1ccc([C@H]2C[C@H](n3cc(-c4ccc(F)cc4)nn3)[C@@H](O)CN2CC2CCCCC2)cc1	3	-7	.	.	.	.	5	-1
O=C(CN1CCN(c2ccccc2F)CC1)NCc1ccc(Cl)cc1	1	-7	6	8	i	-3	2	-2

The listing continues.
SMILES	Env fusion inh	UUG fidelity	PABP FP inh	CSC inhib	Rce1 inh	eIF4H inh	MT1-MMP act inh	MT1-MMP act inh RFP	others
c1ccc(Nc2nn[nH]n2)cc1	.	-11	2	-20	i	4	4	4
C/C(=N\NC(=O)CN1CCN(Cc2ccccc2)CC1)c1cccs1	6	.	-2	-7	i	-9	6	1
O=C(COC(=O)/C=C/c1ccc([N+](=O)[O-])cc1)NC(=O)NC1CCCCC1	-2	-17	.	-24	.	.	1	0
O=C(COC(=O)C12CC3CC(CC(C3)C1)C2)Nc1ccccc1F	10	-2	5	-19	i	3	1	7
N#Cc1ccc(-c2nc3cc(Cl)ccc3c(=O)n2O)cc1	-27	-5	5	22	i	-9	1	-1
CCCC(=O)C1=C(O)C(C(=O)OC)C(C)(C)CC1=Nc1ccc(OC)cc1 (centres undefined)	13	.	-3	-13	i	-4	3	-4
COCCNC(=O)C(c1ccc(C)cc1)N(C(=O)CCC(=O)Nc1ccccn1)c1cccc(C)c1 (centres undefined)	-2	-3	-2	.	i	2	.	.
O=C(CSc1nnc(CNC(=O)c2ccc(F)cc2)o1)Nc1nccs1	1	0	4	-8	i	16	-5	1
CCCOc1ccc(/C=C2\SC(=S)N(CC3CCCO3)C2=O)cc1 (centres undefined)	-9	.	-7	19	i	1	4	-4
COCCSc1nnc(NC(=O)c2cc(C(=O)OC)cc([N+](=O)[O-])c2)s1	1	.	0	.	i	-4	1	1
CC(=O)Nc1ccc(-c2cc3ccccc3o2)cc1	-285	-20	8	10	i	1	2	-3
COc1ccc(NC(=O)c2ccc(CNc3c(N4CCCC4)c(=O)c3=O)cc2)cc1Cl	17	-2	-12	-12	i	-11	-3	-1
COc1cc2[nH]c3c(=O)n(CCN4CCOCC4)cnc3c2cc1OC	-5	1	-12	-8	+	-3	9	2
COc1ccc(/C=C/C(=O)NC(=S)N2CCCC(C(N)=O)C2)cc1 (centres undefined)	-13	-21	11	-9	i	-1	-8	-7
CCOC(=O)C1=C(C)NC(C)=C(C(=O)OCCNC(=O)c2cccnc2)C1c1cccc([N+](=O)[O-])c1 (centres undefined)	.	-12	50	-3	i	6	-8	-5
CC(C)CC1NC(=O)N(CC(=O)Nc2cc(F)ccc2F)C1=O (centres undefined)	8	-10	.	-17	.	.	4	4
Cc1ccc(S(=O)(=O)CCC(=O)OCc2ccc(Cl)cc2)cc1	13	.	-4	14	i	6	0	3
Cc1ccc(C(=O)NC(C)c2nnc(SCC(=O)NC3CCCC3)n2C)cc1 (centres undefined)	18	-6	27	-16	i	2	-4	-6
NS(=O)(=O)c1ccc(NC(=O)c2ccc(COc3ccccc3)o2)cc1	7	.	-9	-6	i	-6	11	1
CC(=O)c1ccc(NC(=O)c2ccn(C(=O)OCC(C)C)n2)cc1	-73	.	9	2	i	-8	3	4
O=C(CCCN1C(=O)c2cccc3cccc(c23)C1=O)NCCN1CCOCC1	-12	.	-4	-1	i	0	-2	0
O=C(COC(=O)c1cccc2ccccc12)Nc1cccnc1Cl	-1	.	7	10	i	-4	-1	2
Cc1cc(C)nc(/N=C2/NC(=O)CS2)n1	.	-20	29	3	.	-5	-9	4
Cc1cc(C(=O)Nc2nc3c(s2)CCCC3)cs1	-413	-24	-6	86*	i	-3	.	.
CCOCCn1c(N2CCCC2)nc2c1c(=O)[nH]c(=O)n2C	-11	-7	10	-10	i	-1	2	2
O=C(O)c1cccc(S(=O)(=O)Nc2ccccc2C(=O)NCCc2ccccc2)c1	-7	1	-7	-12	i	-11	4	2
C/C(=N\O)C(=O)NCCCn1ccnc1	5	.	9	5	i	14	0	3
Fc1ccc(Nc2nnns2)cc1	1	.	-8	-14	i	-4	-1	0
CC(C)CCn1c(CN2CCN(Cc3ccccc3)CC2)nc2c1c(=O)[nH]c(=O)n2C	-168	-7	-12	-9	i	0	11	-12
CNC(=O)c1csc(-c2ccncc2)n1	-43	.	10	-11	i	6	2	4
O=S(=O)(c1ccc(C(F)(F)F)cc1)N1CCCN(c2ccc(C(F)(F)F)cn2)CC1	44	-3	-6	20	i	-3	4	2
COC(=O)CN(C(=S)Nc1ccc(F)cc1)C1CC(=O)N(c2ccc(OC)cc2)C1=O (centres undefined)	71*	-6	-4	.	i	5	0	6
COc1ccc(C(=O)Nc2c(C)ccc3nsnc23)cc1[N+](=O)[O-]	-12	-22	17	2	i	12	2	5
CC(C)(CN1CCC(Cc2ccccc2)CC1)NS(=O)(=O)c1ccccc1	11	1	-7	.	i	-5	-1	-5
COc1cccc(NC(=O)CN(Cc2ccccc2)S(C)(=O)=O)c1	5	9	3	-9	i	3	-4	-2
CCC1=NN(C(=O)COc2ccccc2)C(O)(c2ccncc2)C1 (centres undefined)	16	-27	-1	-12	i	5	-2	-2
O=[N+]([O-])c1ccc(Cc2nnc(-c3ccc(F)cc3)o2)cc1	-33	.	10	-4	i	-9	6	-3
CC1(C(=O)NCc2ccccn2)C=CCN1C(=O)c1ccccc1 (centres undefined)	-9	-12	18	12	i	5	-4	0
Cc1onc(-c2cccc(Cl)c2Cl)c1C(=O)O/N=C(\N)c1ccc([N+](=O)[O-])o1	10	7	-18	16	i	-1	3	-5
COc1ccc(-c2[nH]ncc2/C=N/NC(=O)c2ccncc2)c(OC)c1	6	-20	3	-26	i	-10	0	3
CCC1(N(C(C)=O)c2ccc(OC)cc2)C(=O)c2ccccc2C1=O	.	.	-5	-3	i	-4	2	-1
O=C(NCc1ccccc1)c1ccccc1Br	-11	-15	18	-10	i	-7	2	6
CC(=O)c1cccc(NC(=O)CSc2nc(=O)n(Cc3ccccn3)c3c2CCC3)c1	11	-3	.	-6	i	.	3	-3
CCOC(=O)c1sc(NC(=O)/C=C/c2cnn(C)c2C)c(C(=O)OCC)c1C	.	.	-8	2	i	2	.	.
COc1ccc(NC(=O)CN(C)CC(=O)Nc2ccc(Cl)cc2F)cc1	1	-9	-14	14	i	-4	-1	4
COc1cc(C(=O)C(O)c2ccc(O)c(OC)c2)ccc1O (centres undefined)	15	2	.	.	.	.	3	2
CCN(CC)S(=O)(=O)c1ccc(S(=O)(=O)N2CCC(C(=O)NC3CCN(Cc4ccccc4)CC3)CC2)cc1	.	-9	2	-13	i	0	-5	-1
CC(=O)c1ccc(NC(=O)c2onc(C)c2Cl)cc1	-18	-7	8	-8	i	7	-3	1
CCOc1ccc(N2CC(C(=O)Nc3ccc(N4CCOCC4)cc3)CC2=O)cc1 (centres undefined)	.	-14	-10	12	i	3	-2	-2
CCN(CC)CCC#CC(O)(c1ccccc1)c1ccccc1	-6	.	6	0	i	0	1	6
CCOC(=O)c1nc(-c2ccccc2)oc1N(C)C	.	-10	-1	-3	.	-5	-3	-1
COc1ccc(-c2[nH]ncc2CN(C)C(C)c2cccs2)c(F)c1 (centres undefined)	37	-10	5	-4	i	-7	3	-2
CC(c1ccon1)N(C)Cc1cn[nH]c1-c1ccc(F)cc1F (centres undefined)	11	-15	6	-5	i	-9	2	0
NC(Cc1ccc(Cl)cc1)c1csc(Nc2ccc(C(=O)NCCCO)cn2)n1 (centres undefined)	-81	-11	.	.	.	.	-1	-1
Cc1ccc(S(=O)(=O)N2CCN(C(=O)COc3ccc(NC(=O)c4ccco4)cc3)CC2)cc1	.	.	4	94*	i	-10	0	1
CC(C)Cc1nn2c(=O)cc(O)nc2s1	37	-2	20	7	i	7	-2	1
CCn1c(SCC(=O)Nc2nc(C)cs2)nnc1-c1ccncc1	15	-6	2	.	i	-2	2	3
CCOC(=O)C1CCCCN1C(=O)CCc1c(C)nc2cc(-c3ccccc3)nn2c1C (centres undefined)	61*	-5	11	2	i	-5	-5	-20
O=C(COC(=O)/C=C/c1ccccc1)Nc1ccc(Cl)cn1	29	-18	.	.	i	.	4	3
CCN(C(=O)CSc1ncn[nH]1)c1c(N)n(Cc2ccccc2)c(=O)[nH]c1=O	.	-18	.	-5	i	.	3	3
CCCC(=O)NC1CCCc2c1cnn2-c1ccc(C)c(C)c1 (centres undefined)	4	-22	4	-10	i	-2	6	-10
COc1ccc(-c2cc3cc(OC)c(OC)cc3c(C)n2)cc1C	1	-7	-11	8	i	-4	3	2

Assay outcomes (PubChem)
